Source: PubChem
EBNA-1 inh = EBNA-1 DNA-binding inhibitors, primary screen, biochemical, fluorescence polarization; inhibition, % at 14.8 µM; actives 0.34% (n = 300,000); in the data active = inhibition above about 28%
LYPLA1 counter = LYPLA1 inhibitors, primary screen, counter-screen for PME1 inhibitor project, biochemical, fluorescence polarization, FP-Rh probe ABPP; AID 2174, 2009; Acyl-protein thioesterase 1 (Homo sapiens), O75608; actives 0.16% (n = 320,000); recombinant LYPLA1; inhibition, % at 5.9 µM;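 active = inhibition above the mean of all tested compounds plus 3 SD, set per campaign, cut at about 14% in these data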;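 note: inhibitors block serine hydrolase probe labeling of LYPLA1 so polarization falls; 0% = enzyme with DMSO and 100% = wells lacking LYPLA1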
Target sequence (O75608 whole entry, looked up): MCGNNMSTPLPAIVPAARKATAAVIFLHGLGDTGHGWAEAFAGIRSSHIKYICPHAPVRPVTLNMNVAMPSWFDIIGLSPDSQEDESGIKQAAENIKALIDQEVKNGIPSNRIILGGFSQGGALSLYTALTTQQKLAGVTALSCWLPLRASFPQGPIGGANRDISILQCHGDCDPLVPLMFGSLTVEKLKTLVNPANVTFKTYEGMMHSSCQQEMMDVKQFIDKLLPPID
PAFAH2 FP inh = PAFAH2 enzyme inhibitors, primary screen, biochemical, fluorescence polarization, human; actives 0.99% (n = 340,000); inhibition, % at 3.39 µM; AID 492956, 2010; recombinant PAFAH2, FP-rhodamine activity probe;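 active = inhibition above the mean over all tested compounds plus 3 SD, cut at about 30% in these data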;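 note: inhibitors block probe labeling of enzyme so polarization drops; 0% = enzyme with DMSO and 100% = wells lacking PAFAH2 protein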
PAFAH1B3 FP inh = PAFAH1B3 enzyme inhibitors, primary screen, biochemical, fluorescence polarization, human | Platelet-activating factor acetylhydrolase IB subunit alpha1 (Homo sapiens), Q15102 | recombinant PAFAH1B3, FP-rhodamine probe | inhibition, % at 3.39 µM | actives 0.28% (n = 340,000);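 active = inhibition above the screen-wide average of all tested compounds plus 3 SD, cut at about 25% in these data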;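 note: 0% = enzyme with DMSO only and 100% = wells lacking PAFAH1B3 protein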
PAFAH1B2 FP inh = PAFAH1B2 enzyme inhibitors, primary screen, biochemical, fluorescence polarization, human; inhibition, % at 3.39 µM; recombinant PAFAH1B2, FP-rhodamine activity probe; actives 1.2% (n = 340,000);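 active = inhibition above the mean of all tested compounds plus 3 SD, cut at about 24% in these data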;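 note: 0% = enzyme with DMSO and 100% = wells lacking PAFAH1B2; many of its hits are not listed in these tables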
Target sequence (P68402 whole entry, looked up): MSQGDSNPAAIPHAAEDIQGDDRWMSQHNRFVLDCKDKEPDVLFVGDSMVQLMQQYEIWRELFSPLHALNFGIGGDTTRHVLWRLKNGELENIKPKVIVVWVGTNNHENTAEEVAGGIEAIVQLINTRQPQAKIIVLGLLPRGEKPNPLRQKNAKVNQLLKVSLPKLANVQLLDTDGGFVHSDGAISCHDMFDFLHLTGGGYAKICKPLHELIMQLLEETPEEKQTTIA
pPAFAH inh = pPAFAH enzyme inhibitors, primary screen, biochemical, fluorescence polarization, human | recombinant pPAFAH, FP-rhodamine probe fluorescence polarization | inhibition, % at 3.39 µM | actives 1.5% (n = 330,000) | Platelet-activating factor acetylhydrolase (Homo sapiens), Q13093 | AID 463082, 2010;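 active = inhibition above the mean inhibition across the screen plus 3 SD, cut at about 25% in these data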;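 note: inhibitors block binding of the rhodamine activity-based probe so polarization drops; 0% = enzyme with DMSO and 100% = wells lacking pPAFAH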
LYPLA2 counter = LYPLA2 inhibitors, primary screen, counter-screen for PME1 inhibitor project, biochemical, fluorescence polarization, FP-Rh probe ABPP; Acyl-protein thioesterase 2 (Homo sapiens), O95372; recombinant LYPLA2; inhibition, % at 5.9 µM; actives 0.38% (n = 320,000); AID 2177, 2009;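 active = inhibition above the screen-wide mean plus 3 SD, limit set per campaign, cut at about 26% in these data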;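 note: 0% = LYPLA2 with DMSO and 100% = wells lacking LYPLA2 enzyme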
Target sequence (O95372 whole entry, looked up): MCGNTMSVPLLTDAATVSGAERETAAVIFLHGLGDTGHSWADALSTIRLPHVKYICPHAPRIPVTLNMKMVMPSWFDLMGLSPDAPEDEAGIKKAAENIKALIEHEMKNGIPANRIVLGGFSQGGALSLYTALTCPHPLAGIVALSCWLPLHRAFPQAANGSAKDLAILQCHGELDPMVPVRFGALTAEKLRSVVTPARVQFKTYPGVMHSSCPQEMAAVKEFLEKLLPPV
ZTA DNA inh = ZTA (EBV) inhibition in EBNA-1 counter-screen. actives 0.15% (n = 320,000). ZTA-DNA binding, fluorescence polarization. inhibition, % at 11 µM. AID 2234; in the data active = inhibition above about 33%
Target sequence (P03206 whole entry, looked up): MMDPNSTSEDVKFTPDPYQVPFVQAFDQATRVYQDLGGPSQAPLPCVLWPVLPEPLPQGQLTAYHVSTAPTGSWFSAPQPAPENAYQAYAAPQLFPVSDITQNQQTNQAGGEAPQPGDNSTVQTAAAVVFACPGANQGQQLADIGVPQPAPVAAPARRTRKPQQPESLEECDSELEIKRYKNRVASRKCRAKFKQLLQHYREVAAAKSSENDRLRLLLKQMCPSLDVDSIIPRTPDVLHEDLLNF
* marks the source's active call; other numbers are inactive results; . = no result given.

SMILES | EBNA-1 inh | LYPLA1 counter | PAFAH2 FP inh | PAFAH1B3 FP inh | PAFAH1B2 FP inh | pPAFAH inh | LYPLA2 counter | ZTA DNA inh
CCn1c2ccccc2c2cc(NC(=O)COC(=O)c3ccc(O)cc3)ccc21 | -6 | -17 | 24 | 13 | -1 | 33* | -16 | 4
O=C(CCC(=O)N1CCOc2ccc(Cl)cc21)NCCCN1CCN(Cc2ccccc2)CC1 | -9 | 6 | 0 | -1 | 1 | 6 | 9 | -13
Cc1cc(=O)oc(C)c1C(=O)N1CCN(c2ccc(F)cc2)CC1 | -5 | 2 | 3 | 7 | 1 | 3 | 13 | -19
Cc1oc(-c2ccccc2Cl)nc1CS(=O)CC(=O)NCCCN1CC(C)CC(C)C1 (stereo unspecified) | -5 | -2 | 2 | 5 | 1 | 4 | 2 | -9
Cc1c(C(=O)Nc2ccc3nc(N4CCOCC4)sc3c2)oc2ccccc12 | . | 2 | 15 | 7 | 2 | 16 | 0 | -2
CCn1c2ccccc2c2cc(NC(=O)COC(=O)c3cc(Cl)c(N)cc3OC)ccc21 | 8 | -14 | 0 | 9 | -4 | 5 | -7 | 10
COc1ccc(-c2nc(C#N)c(NCCc3ccccc3)o2)cc1OC | -6 | 7 | -4 | 6 | 6 | 14 | 9 | 2
Cc1ccc(C)c(NC(=O)COC(=O)CC2c3ccccc3CCN2S(=O)(=O)c2ccc(F)cc2)c1 (stereo unspecified) | -2 | 0 | -9 | -3 | 6 | 17 | 3 | 8
COc1ccc(/C=C2\Sc3ccc(C(=O)N4CCc5ccccc5C4)cc3N(C)C2=O)cc1 | -1 | -4 | . | . | . | -2 | 7 | -7
CCC(=O)OC1(C)C(=O)C=C2C=C(C3CC3)OC=C2C1=O (stereo unspecified) | 7 | 7 | 2 | 10 | 11 | 8 | 3 | -7
CCN1CCc2c(OCc3ccc(C)cc3)cccc2C1=O | 7 | 1 | 3 | 4 | 3 | 6 | 7 | 1
CC(C)CNC(=O)C1CCN(c2ccc(S(=O)(=O)N3CCOCC3)cc2[N+](=O)[O-])CC1 | 3 | -3 | -1 | 7 | 0 | 4 | -4 | -8
CC1CCCC(C)N1CCCNC(=O)c1cc2c(s1)-c1ccccc1OC2 (stereo unspecified) | 0 | -1 | -13 | -1 | 3 | 1 | 0 | 8
Cc1cccc(N2CC(C)Cn3c2nc2c3c(=O)[nH]c(=O)n2C)c1 (stereo unspecified) | -14 | 3 | -6 | 8 | 3 | 0 | -1 | -6
Cc1nnc(C)c2c(C)n(C(C)c3ccccc3)c(C)c12 (stereo unspecified) | -5 | -4 | -5 | -6 | 3 | -5 | -8 | -13
COc1cccc(-n2c(SCC(=O)NC3CCCC3)nnc2-c2ccco2)c1 | -15 | 3 | 4 | 8 | 3 | -2 | -4 | -3
CCOC(=O)c1cc(/C(C)=N/OC(=O)c2ccc(C(C)(C)C)cc2)on1 | 0 | -1 | 3 | 8 | 6 | 2 | 1 | 3
CC(=O)c1cc2c(cc1NC(=O)CN1CCN(c3ccc(F)cc3)CC1)OCO2 | 3 | 5 | -1 | 2 | 3 | 9 | 4 | -18
Cc1ccn2c(=O)nc(SCC(=O)c3ccc(Cl)cc3)nc2c1 | 1 | -1 | 6 | 4 | 6 | 25* | 0 | 8
COc1ccc(C[C@@H]2CN3C(=NC[C@@H]3C)N2CCNC(=O)c2ccc(C)c(Br)c2)cc1 | 8 | 2 | -3 | 15 | -2 | 7 | 4 | 11
CC(C)(C)NC(=O)c1ccc2c(c1)N(CC(=O)N1CCN(c3ccccc3F)CC1)C(=O)C(C)(C)O2 | 11 | 3 | -2 | 6 | 3 | 6 | 0 | 13
COCCn1c(=O)c2c(nc3n2CCCN3CCc2ccccc2)n(C)c1=O | 3 | 4 | 7 | 6 | 3 | 8 | -4 | -3
CCN(CC)S(=O)(=O)c1cc(C(=O)OCC(=O)Nc2cccc(S(=O)(=O)N(C)C)c2)ccc1F | -13 | -2 | 26 | 1 | 3 | 8 | -5 | -18
CC1(C)CCCC(C)(C)N1CC(O)COCCOc1ccc(Br)cc1 (stereo unspecified) | 4 | 0 | 6 | 3 | 2 | 1 | -4 | 0
Nc1nc2n(n1)C(c1cccc(Br)c1)CC(c1ccc(F)cc1)N2 (stereo unspecified) | 7 | 2 | 3 | 4 | 3 | 7 | 2 | 16
COCCCN1C(=O)c2[nH]nc(-c3cc(C)cc(C)c3O)c2C1c1ccc(O)c(OC)c1 (stereo unspecified) | 3 | 2 | -2 | 2 | 3 | 5 | 11 | 1
COC(=O)c1[nH]c2ccccc2c1NC(=O)CN1CCN(C/C=C/c2ccccc2)CC1 | 4 | 2 | 9 | 4 | 0 | 10 | 1 | 5
COCCn1c(-c2ccc(-c3ccc([N+](=O)[O-])cc3Br)o2)nc2c1c(=O)[nH]c(=O)n2CC(C)C | 8 | 2 | 8 | 6 | 1 | 29* | 6 | 5
Cc1ccc(C(=O)/C=C/c2cn(CC(O)CN3CCOCC3)c3ccccc23)cc1 (stereo unspecified) | -5 | 1 | 1 | -7 | 10 | 14 | 2 | 1
Fc1ccc(N2CCN(C3=Nc4cccc5cccc3c45)CC2)cc1 | -3 | -8 | 3 | 5 | -2 | 11 | -1 | -6
Cc1ccc(S(=O)(=O)C(C#N)c2nc3ccccc3nc2N2CC(C)OC(C)C2)cc1C (stereo unspecified) | -4 | -2 | 8 | -2 | 7 | 6 | 5 | 1
CCn1c(=O)c2c(nc3n2CC(C)CN3CCc2ccccc2)n(C)c1=O (stereo unspecified) | 0 | -3 | 4 | 0 | -2 | 3 | -2 | 0
CN(C)c1ccc(C(=O)OCc2ccc(Br)cc2)cc1 | -7 | 0 | 34* | -2 | 12 | 10 | 1 | -2
CCOc1cc(/C=N/NC(=O)CN2CCOCC2)ccc1OCc1ccc(Cl)cc1 | -3 | -2 | 3 | -2 | -7 | 6 | 2 | 5
O=C(Cc1cccs1)N1CCN(S(=O)(=O)c2ccc(F)cc2)CC1 | -17 | 2 | 8 | 5 | 15 | -3 | -3 | 2
Cc1ccc2nc(SCC(=O)N3CCN(c4ccccc4)CC3)nc(=O)n2c1 | -4 | 3 | 7 | 14 | 6 | 7 | 4 | 5
C/C=C(\C)C(=O)NCCN1C2=NC[C@H](Cc3ccccc3)N2C[C@@H]1Cc1ccc(OC)cc1 | 2 | 4 | -4 | 9 | 4 | -1 | 0 | -20
CC1CCc2c(sc(NC(=O)c3ccc(N4C(=O)CCC4=O)cc3)c2C(N)=O)C1 (stereo unspecified) | . | -4 | 1 | 1 | 8 | 3 | 14 | 16
Cc1cccc(C2CC(c3ccccc3)Nc3nc(N)nn32)c1 (stereo unspecified) | 3 | 3 | 7 | -7 | 3 | 3 | 6 | -16
O=C(NCCN1C(=O)S/C(=C\c2cccnc2)C1=O)C1CC(=O)N(Cc2ccco2)C1 (stereo unspecified) | 3 | 0 | 5 | 10 | 4 | -4 | -5 | 2

2 of the compounds above, with two lines to a compound:
Value order – EBNA-1 inh	LYPLA1 counter	PAFAH2 FP inh	PAFAH1B3 FP inh	PAFAH1B2 FP inh	pPAFAH inh	LYPLA2 counter	ZTA DNA inh
CCOc1cc(/C=N/NC(=O)CN2CCOCC2)ccc1OCc1ccc(Cl)cc1
 : -3	-2	3	-2	-7	6	2	5
O=C(Cc1cccs1)N1CCN(S(=O)(=O)c2ccc(F)cc2)CC1
 : -17	2	8	5	15	-3	-3	2

The list continues.
SMILES | EBNA-1 inh | LYPLA1 counter | PAFAH2 FP inh | PAFAH1B3 FP inh | PAFAH1B2 FP inh | pPAFAH inh | LYPLA2 counter | ZTA DNA inh
CC(C)C(NS(=O)(=O)c1cccs1)C(=O)NCCN1CCN(c2ccccc2)CC1 (stereo unspecified) | 0 | 0 | 0 | 8 | 2 | -1 | 9 | 4
CCCOc1ccc(C(=O)C(c2ccccc2)N2CCOCC2)cc1 (stereo unspecified) | 0 | -3 | 5 | 11 | 3 | 13 | -2 | -3
CCN(CC)CCCN1CC(O)=C(c2nc3ccccc3s2)C1=N | -8 | 0 | 17 | -3 | 10 | 2 | 2 | 13
CCOc1cc(/C=N\NC(=O)Cc2ccccc2)ccc1OCC(=O)Nc1ccc(C)c(C)c1 | 3 | 1 | -2 | 3 | 0 | -2 | 3 | 14
O=C(CSc1nc2c(c(=O)n1-c1ccc(F)cc1)SCC2)Nc1ccc2c(c1)OCO2 | 5 | 0 | 11 | 9 | 0 | -1 | 1 | -4
Nc1ncc([N+](=O)[O-])cc1S(=O)(=O)c1ccccc1 | 3 | 2 | . | . | . | -1 | 0 | 19
COc1ccc(C2CC(c3ccc(OC)cc3)n3nc(NC(=O)c4ccco4)nc3N2)cc1 (stereo unspecified) | -14 | -3 | 1 | 10 | 9 | 0 | 4 | -15
Cc1c(/C=N/NC(=O)c2cccnc2)c2ccccn2c1C(=O)c1ccc(F)cc1 | -7 | 2 | . | . | . | 12 | -1 | 7
CCN(CC)c1ccc(/C=N/NC(=O)c2nnn(-c3nonc3N)c2-c2ccc(C)cc2)cc1 | -26 | -8 | -2 | 7 | 0 | 6 | -4 | -8
O=C(CN1CCC(C(=O)c2cccc(F)c2)CC1)NCc1cccs1 | 0 | 2 | -4 | -3 | -2 | 1 | -1 | -3
CCOc1ccc(NC(=O)CSc2nc3c(c(=O)n2C)SC(C)C3)cc1 (stereo unspecified) | -1 | 0 | 1 | -4 | 5 | 0 | 1 | 0
O=[N+]([O-])c1ccc(OC/C=C2\Oc3ccc([N+](=O)[O-])cc3C2N2CCOCC2)cc1 (stereo unspecified) | 8 | -2 | -2 | 7 | 23 | 3 | 6 | -11
CCc1ccc(-c2nc(CN3CCC(C(=O)N4CCN(c5ccccn5)CC4)CC3)c(C)o2)cc1 | 1 | 1 | 0 | 5 | 2 | 8 | 0 | -10
NC(=O)c1ccc(N2CCN(S(=O)(=O)c3ccccc3)CC2)c([N+](=O)[O-])c1 | 16 | 2 | 2 | -3 | -1 | 4 | 12 | 1
Cc1[nH]nc2c1C(c1ccc(OC(=O)c3ccco3)cc1)C(C#N)=C(N)O2 (stereo unspecified) | 8 | 1 | 2 | 4 | 3 | 0 | 1 | -7
CCOC(=O)N1CCN(C(=O)c2ccc3c(c2)N(Cc2ccccc2)CCS3)CC1 | -8 | 0 | -5 | -9 | -1 | 6 | 7 | -9
Cc1ccc(C2CC(c3cccc(Br)c3)n3nc(N)nc3N2)cc1 (stereo unspecified) | 9 | 2 | 5 | 15 | 0 | 4 | -4 | 6
Cn1c(OCc2cccnc2)nc2c1c(=O)n(Cc1ccccc1)c(=O)n2C | 3 | -2 | 5 | 0 | 0 | 0 | 2 | 10
CCCn1c(=O)c2c(nc3n2CCCN3CCc2ccccc2)n(C)c1=O | 10 | -1 | 12 | 0 | 3 | 8 | 2 | -3
COc1cc(/C=C(\C#N)c2nc3ccccc3[nH]2)cc(Br)c1OCc1ccc(F)cc1 | 5 | -18 | -11 | -5 | -3 | -2 | -21 | -8
COc1ccc(C(CCNC(C)c2ccccc2)C(C)C)cc1 (stereo unspecified) | -9 | 3 | . | . | . | -3 | 5 | -28
Cn1c(NCc2ccco2)nc2c1c(=O)n(Cc1ccc(Cl)cc1)c(=O)n2C | -14 | -4 | 1 | 3 | 3 | -4 | -8 | 5
COc1cccc(C(c2c(NC(=O)c3ccccc3)sc(C)c2C)N2CCN(C)CC2)c1 (stereo unspecified) | -8 | 1 | 10 | 11 | 0 | 12 | -8 | -7
N#Cc1nc(-c2ccc(OCc3ccccc3)cc2)oc1NCc1cccnc1 | 9 | -1 | 0 | 10 | 5 | 13 | 18 | 9
CCN(CCCNC(=O)CCC(=O)N1CCOc2ccccc21)Cc1ccccc1 | -1 | 2 | 4 | 6 | 2 | -5 | -4 | 2
Cc1oc(-c2ccc(Cl)cc2)nc1CS(=O)CC(=O)NCCCN1CCCC(C)C1 (stereo unspecified) | 0 | -1 | -4 | 2 | 5 | 4 | -2 | 8

Not all compounds are listed (hit frequency here may not be typical).
